# Bioassay records (PubChem BioAssay)
# CtBP-E1A blk = CtBP/E1A binding inhibition; AID 651724; AlphaScreen GST-E1A/His-CtBP binding, 1536-well; stronger effect = lower value; control for the full effect not named in the record; activity change, % (concentration not given with the values); 340,000 compounds, 0.49% hits; in the data active means activity change below about -65%; inconclusive means about -30% to -65%; inactive means above about -30%; note: % is set by controls: 0 for no effect and ±100 for the full control effect
#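 Protein mix (5X: 125 nM each GST-E1A, His-CtBP) was incubated with pinned compound 2 h at 37 deg C in dark, in 50 mM Tris pH 8.0 buffer with 300 mM NaCl. Glutathione donor and nickel acceptor beads followed; AlphaScreen signal read after 1 h.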
# D2 potentiator = potentiates the human D2 dopamine receptor allosterically. P14416. DiscoveRx D2 beta-arrestin cells, luminescence, 90 min; 100% = 57 uM dopamine signal. potentiation, % (test concentration not listed). 360,000 compounds, 0.23% hits. AID 624464; active = potentiation of 50% or more; inconclusive = 30% to 50%; inactive = 30% or less;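 note: compound concentration not given in the record; tested on top of an EC20 dose of dopamine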
# Target sequence (P14416 whole entry, looked up): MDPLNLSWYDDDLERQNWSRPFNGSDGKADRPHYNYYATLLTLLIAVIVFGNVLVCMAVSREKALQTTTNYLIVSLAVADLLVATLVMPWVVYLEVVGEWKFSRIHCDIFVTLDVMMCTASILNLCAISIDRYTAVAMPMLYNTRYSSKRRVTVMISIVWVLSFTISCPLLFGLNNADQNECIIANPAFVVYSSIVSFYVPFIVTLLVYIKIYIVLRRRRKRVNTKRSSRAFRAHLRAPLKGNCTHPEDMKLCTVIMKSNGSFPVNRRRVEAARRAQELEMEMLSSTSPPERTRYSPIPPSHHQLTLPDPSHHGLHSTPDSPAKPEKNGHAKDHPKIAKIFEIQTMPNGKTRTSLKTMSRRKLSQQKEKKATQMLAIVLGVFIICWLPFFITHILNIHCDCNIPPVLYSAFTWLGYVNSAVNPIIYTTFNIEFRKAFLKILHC
#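 PathHunter D2 cells, attached overnight at 37 deg C, received compound in DMSO plus dopamine at EC20 (50 nM final) for 90 min at 37 deg C. Beta-arrestin recruitment was read as luminescence after 1 h with detection reagent at ambient temperature.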
# TRPV1 potentiator = potentiators of human vanilloid receptor 1 (TRPV1). Q8NER1. TRPV1-expressing cells, Fluo-8 calcium influx, capsaicin EC20 potentiation; host cell line not named in the record; control for the full effect not named in the record. potentiation, % at 8.33 µM. 320,000 compounds, 0.02% hits. AID 540277; active means potentiation above 80%; inconclusive means 30% to 80%; inactive means below 30%; note: 0% is about no effect
#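 Cells expressing TRPV1 were dye-loaded with Fluo-8 and read kinetically: 10 s baseline, 3 min after compound (agonist portion), then 2 min after EC20 capsaicin (allosteric enhancer portion). Calcium-bound dye fluorescence at 480/520 nm.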
# Six1-Eya2 inh = blocks human Six1 binding to Eya2; 360,000 compounds, 0.56% hits; AlphaScreen GST-Six1/His-Eya2 binding, biochemical; stronger effect = lower value; control for the full effect not named in the record; activity change, % (test concentration not listed); Q15475+O00167; in the data active = activity change below about -65%; inconclusive = about -30% to -65%; inactive = above about -30%; note: % is set by controls: 0 for no effect and ±100 for the full control effect
#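 Compounds are tested against tagged Six1 and Eya2 proteins bridged by glutathione donor and nickel acceptor beads; after a one-hour incubation at 37 °C without light, AlphaScreen emission is recorded.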
# TRPML1 agonist = human mucolipin-1 channel agonism; Q9GZU1; TRPML1-expressing cells, Ca2+ dye fluorescence, FDSS; host cell line not named in the record; reference of the full effect not given here; activation, % (no concentration beside the values); 410,000 compounds, 0.12% hits; in the data active = activation above about 50%; inconclusive = about 30% to 50%; inactive = below about 30%; note: 0% is about no effect; the text of the record puts the active cut at 80%
# Target sequence (Q9GZU1 whole entry, looked up): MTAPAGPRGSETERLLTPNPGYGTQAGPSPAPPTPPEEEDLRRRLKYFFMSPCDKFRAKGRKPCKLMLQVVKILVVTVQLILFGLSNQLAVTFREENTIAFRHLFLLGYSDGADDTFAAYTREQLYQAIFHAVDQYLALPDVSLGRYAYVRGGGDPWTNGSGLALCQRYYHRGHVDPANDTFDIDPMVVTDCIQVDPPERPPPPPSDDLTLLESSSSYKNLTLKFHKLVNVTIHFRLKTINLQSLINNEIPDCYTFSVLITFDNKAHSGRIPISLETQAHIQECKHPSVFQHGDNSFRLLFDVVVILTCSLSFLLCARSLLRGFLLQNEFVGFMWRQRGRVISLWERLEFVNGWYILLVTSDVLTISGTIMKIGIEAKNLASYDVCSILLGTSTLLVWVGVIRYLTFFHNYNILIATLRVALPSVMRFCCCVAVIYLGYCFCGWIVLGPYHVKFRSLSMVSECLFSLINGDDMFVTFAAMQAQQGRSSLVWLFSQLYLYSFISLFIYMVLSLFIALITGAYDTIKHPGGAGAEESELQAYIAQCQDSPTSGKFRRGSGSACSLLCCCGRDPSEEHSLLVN
#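 TRPML1-DL cells, Tet-induced overnight (~16 h, 37 degrees C), loaded 45-90 min at room temperature with Ca8 no-wash calcium dye plus quencher. FDSS fluorescence: 10 s baseline, compound pin-transfer, 110 s agonist read, then EC80 54-4 (4uM final) and 110 s antagonist read.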
# TRPML1 inh = blocks the human TRPML1 channel. Q9GZU1. TRPML1-inducible cells, Ca2+ dye fluorescence, FDSS; stronger effect = lower value; inhibition of EC80 agonist-evoked calcium signal. activity change, negative = inhibition, % (no concentration beside the values). 390,000 compounds, 0.02% hits; in the data active means activity change below about -50%; inconclusive means about -30% to -50%; inactive means above about -30%;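 note: stimulus is agonist 54-4 at its EC80 concentration; % is set by controls: 0 for no effect and ±100 for the full control effect; compound concentration not given in the record; the text of the record puts the active cut at -80%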
#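 Tet-induced TRPML1-DL cells loaded with Ca8 no-wash calcium dye were read kinetically on FDSS. Compound addition was followed by EC80 agonist 54-4 (4 uM final); inhibition was read over 110 s.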
# Numbers without * were called inactive; ? = inconclusive; . = no result given. No enrichment for hits; about 0.95% have a hit in one of these screens.
# Every second line gives: CtBP-E1A blk	D2 potentiator	TRPV1 potentiator	Six1-Eya2 inh	TRPML1 agonist	TRPML1 inh
> C=CCn1c(SCC(=O)Nc2ccc(Cl)cn2)nnc1C1CC1
 : 3.6	-1.2	-19.6	1.4	-0.6	10.8
> Cc1cccc(NC(=O)C2CCCN2C(=O)Oc2ccccc2)c1C (configuration not stated)
 : 8.5	16.9	20.9	1.4	-0.3	?
> CCC(C)N(CCNC(=O)c1ccc2c(c1)NC(=O)c1ccccc1S2)C1CCCCC1 (configuration not stated)
 : 0.0	-31.8	1.7	6.7	0.2	-5.0
> O=C(NCCN1CCC(n2c(=O)[nH]c3ccccc32)CC1)c1ccc(Cl)c(Cl)c1
 : -19.3	.	.	-1.2	-0.5	.
> O=C(COc1ccccc1/C=C1/NC(=O)NC1=O)Nc1ccccc1
 : 1.2	1.1	11.4	-5.3	4.6	-6.2
> C=CCn1c(CNC(=O)c2ccco2)nnc1SCC(=O)Nc1cccc(Br)c1
 : 4.2	-7.5	2.6	-0.7	0.4	16.0
> CC(NC(=O)c1cc(Br)ccc1Cl)c1ccccc1 (configuration not stated)
 : 8.4	-0.1	6.6	12.8	0.9	32.2
> O=C(CCNC(=O)c1ccc([N+](=O)[O-])cc1)NCc1ccccc1
 : 3.4	0.1	-2.2	1.6	-0.5	-6.4
> CC(=O)Nc1ccc(S(=O)(=O)Nc2cccc(-c3csc(C)n3)c2)cc1
 : 0.0	5.9	6.2	-3.0	-0.4	-4.3
> COc1ccc(CN2C(=O)CCCc3ccccc32)cc1
 : -1.6	-0.6	3.8	2.3	1.3	-0.9
> O=C1CC(c2ccc(F)cc2)C(n2cncn2)C(O)=C1C1NCCc2ccccc21 (configuration not stated)
 : -0.3	3.4	3.3	51.3	0.4	-7.4
> CCC(CC)C(=O)Nc1cccc(C(=O)Nc2ccc(OC)cc2[N+](=O)[O-])c1
 : 8.6	8.2	0.5	-1.5	0.9	16.5
> COC(=O)c1ccc2nc(-c3ccc(C#N)cc3)c(Cc3cccc(F)c3)n2c1
 : 1.3	-11.9	.	-6.4	1.2	29.8
> CCNCCC(=O)N1c2ccccc2Sc2ccc(C(F)(F)F)cc21
 : -21.3	-17.2	-20.3	3.6	?	-15.2
> Cc1cn([C@H]2C[C@H](O)[C@@H](CCC(=O)NCc3ccco3)O2)c(=O)[nH]c1=O
 : -1.0	.	.	-12.6	-0.6	0.1
> COCc1cc(C)n(CC(=O)Nc2cc(C)cc(C)c2)c(=O)c1C#N
 : .	-9.0	-4.6	1.7	0.8	29.4
> CCn1c(SCC(=O)Nc2ccc(OC)c(OC)c2)nc2c(c1=O)SCC2
 : -3.7	-13.8	-4.6	-7.8	-0.3	7.8
> Nc1nc2ccc(N3CCOCC3)cc2s1
 : -1.0	-3.4	9.5	-1.0	0.8	9.7
> CC(=O)NC(CC(=O)N(C)C1CCCCC1)c1ccccc1 (configuration not stated)
 : -12.4	0.8	-1.8	-3.8	0.3	-12.3
> COc1cccc(CN2CC(C(=O)NCc3ccc(C)o3)CCC2=O)c1 (configuration not stated)
 : 9.8	-16.7	-3.3	1.1	0.0	16.1

# Three entries from above, as comma-separated lines:
Compound,CtBP-E1A blk,D2 potentiator,TRPV1 potentiator,Six1-Eya2 inh,TRPML1 agonist,TRPML1 inh
Nc1nc2ccc(N3CCOCC3)cc2s1,-1.0,-3.4,9.5,-1.0,0.8,9.7
Cc1cn([C@H]2C[C@H](O)[C@@H](CCC(=O)NCc3ccco3)O2)c(=O)[nH]c1=O,-1.0,.,.,-12.6,-0.6,0.1
COc1cccc(CN2CC(C(=O)NCc3ccc(C)o3)CCC2=O)c1 (configuration not stated),9.8,-16.7,-3.3,1.1,0.0,16.1

# (next part)
# Every second line gives: CtBP-E1A blk	D2 potentiator	TRPV1 potentiator	Six1-Eya2 inh	TRPML1 agonist	TRPML1 inh
> O=C(NN1C(=O)c2ccccc2NC1c1ccccn1)c1ccccc1 (configuration not stated)
 : 5.7	-1.7	-19.3	-8.6	4.3	5.8
> O=Cc1ccc(OCc2nnc(-c3ccccc3Br)o2)cc1
 : 2.4	-1.4	6.1	4.7	1.3	-12.7
> Cc1nc(Nc2nc3ccccc3o2)nc(C)c1C(=O)Nc1ccc(F)cc1
 : -0.9	-6.9	2.4	-2.0	-0.2	-2.5
> CC(C)c1ccc(NC(=O)C2C3C=CC4(CN(CCCN5CCOCC5)C(=O)C24)O3)cc1 (configuration not stated)
 : -4.4	-33.1	-1.8	-0.9	-0.6	7.4
> CCOC(=O)c1[nH]c2c(c1-c1ccccc1)C(=O)CC(c1ccc(Cl)cc1)C2 (configuration not stated)
 : -0.3	-4.7	20.0	8.6	1.9	-26.7
> C=CCO/N=C(/C)c1c(O)c(CC)c(-c2ccccc2)n(-c2ccccc2)c1=O
 : 3.3	-16.8	-5.7	-0.9	0.4	-10.1
> N#Cc1ccc(Nc2ccccc2)c(N)c1
 : -0.1	-10.4	-2.9	-11.4	2.8	17.3
> Brc1ccc(-c2cnc3n2CCCC3)cc1
 : -16.0	-7.9	-4.4	-12.1	1.5	-21.3
> CCOC(=O)c1c(CC(C)C)csc1/N=C/C1C(=O)CC(C)(C)CC1=O
 : 6.3	-0.8	3.1	11.0	8.8	14.3
> Cc1ccc(C)c(OCC(=O)N2CCOCC2)c1
 : 15.1	9.5	11.6	0.0	-0.9	2.3
> COc1cc(C(C(=O)NC(C)(C)C)N(C(=O)CNC(=O)c2cccs2)c2cccnc2)cc(OC)c1OC (configuration not stated)
 : 1.8	-16.6	-3.1	3.4	-0.9	1.4
> Cc1ccc(N2C(=O)C3C4CC(=O)C(c5ccccc54)C3C2=O)cc1 (configuration not stated)
 : 1.5	-9.9	-9.8	0.7	1.2	12.6
> COc1ccc(S(=O)(=O)Nc2cccc(SC)c2)cc1OC
 : -3.8	-2.3	1.1	-2.0	0.3	-4.1
> Cc1cccc(NC(=O)Cn2c(O)c(N=NC(=O)c3ccncc3)c3ccccc32)c1
 : -6.1	-6.1	0.3	5.9	-1.3	-10.4
> CC(C)(C(=O)Nc1nccs1)c1ccccc1
 : 15.0	-1.5	4.2	-16.7	1.4	32.1
> CCC(CO)NCc1ccc(OC2CCCC2)cc1 (configuration not stated)
 : 0.0	-12.3	-2.5	27.6	0.4	-3.8
> O=C(OCC(=O)c1ccccc1Cl)C1=NN(c2ccccc2)C(=O)CC1
 : -1.2	-29.5	.	-5.1	-0.7	-4.6
> COc1cccc(N(CC(=O)N2CCCCCC2)S(C)(=O)=O)c1
 : 3.8	-1.3	9.5	1.8	-0.3	5.2
> CSc1nc(-c2ccc(F)cc2)cc(=O)[nH]1
 : 10.8	-22.2	-5.9	-2.0	0.4	7.7
> Nc1nc(CSc2ccccn2)nc(Nc2ccccc2)n1
 : -1.3	-6.0	-1.8	-7.4	0.9	44.4

# An excerpt from above, limited to TRPML1 agonist.
SMILES | TRPML1 agonist
O=C(OCC(=O)c1ccccc1Cl)C1=NN(c2ccccc2)C(=O)CC1 | -0.7
COc1cccc(N(CC(=O)N2CCCCCC2)S(C)(=O)=O)c1 | -0.3
CSc1nc(-c2ccc(F)cc2)cc(=O)[nH]1 | 0.4

# Returning to the listing, starting two compounds before the break.
# Every second line gives: CtBP-E1A blk	D2 potentiator	TRPV1 potentiator	Six1-Eya2 inh	TRPML1 agonist	TRPML1 inh
> CSc1nc(-c2ccc(F)cc2)cc(=O)[nH]1
 : 10.8	-22.2	-5.9	-2.0	0.4	7.7
> Nc1nc(CSc2ccccn2)nc(Nc2ccccc2)n1
 : -1.3	-6.0	-1.8	-7.4	0.9	44.4
> CC1CN(c2nc(Nc3ccccc3)nc(N)c2[N+](=O)[O-])CC(C)O1 (configuration not stated)
 : .	-4.0	4.1	-2.8	2.0	9.1
> CC(C)C(=O)N1CCN(c2ccccc2NC(=O)c2ccc([N+](=O)[O-])o2)CC1
 : -2.3	16.6	3.2	-0.1	2.7	5.3
> CCOc1cc(N2CCOCC2)c(OCC)cc1NC(=O)C1CCCC1
 : 10.5	-6.9	-8.9	-9.8	-0.2	0.5
> Cc1nc2scc(-c3ccco3)c2c(=O)n1/N=C/N(C)C
 : 10.6	0.9	-0.9	-3.4	0.2	3.2
> Cc1ccc2nc(-c3cccc(NC(=O)c4ccc5c(c4)OCCO5)c3)oc2c1
 : 5.9	12.2	-13.0	-0.3	1.9	-12.4
> COc1ccc(C(=O)N/C(=C/c2cccc3ccccc23)C(=O)NCCc2c[nH]c3ccccc23)cc1OC
 : 10.0	-10.7	11.5	-12.2	1.2	-12.7
> O=C(NCC1CC1)c1cccc2c1C(=O)c1ccc(N3CCCC3)cc1S2(=O)=O
 : .	2.7	.	1.0	8.3	3.9
> Cc1nn(C)c(C(=O)NC(=S)Nc2ccccc2O)c1Cl
 : -7.2	-28.0	15.0	-5.5	1.3	2.8
> COc1ccc(C(=O)NC2CCN(C(=S)NCCc3ccccc3)CC2)cc1
 : 0.4	-2.3	-24.2	11.1	-0.5	-19.2
> CC(C)n1ncc2c(C(=O)Nc3cccc(C#N)c3)cc(C3CC3)nc21
 : 6.0	-0.4	-8.7	3.0	2.3	-23.7
> O=C(CO/N=C/c1ccccc1OC(F)F)NC1CCCCC1
 : 6.2	0.2	-19.8	3.0	-1.1	-5.0
> O=C(CSc1nnc(COc2ccc(Cl)cc2)n1Cc1ccco1)N1CCNC1=O
 : 2.3	-1.2	-1.3	3.2	-0.8	-17.2
> O=C1CCCN1CCCNc1ncccc1[N+](=O)[O-]
 : -3.5	-2.2	-0.8	9.2	-0.5	-5.4
> O=C(CSCc1ccc([N+](=O)[O-])cc1)Nc1cccc(C(=O)Nc2ccccc2C(=O)O)c1
 : 7.2	-23.2	4.4	?	1.3	4.9
> O=C(CCC1CCCCC1)NCCN1C2=NC[C@@H](Cc3ccccc3)N2C[C@H]1Cc1ccc(O)cc1
 : -3.3	-30.5	-10.9	0.0	1.0	11.8
> CC#CCN1c2ccccc2[C@]23C[C@@H](C(=O)OC)N(C(=O)NC(C)(C)C)C2=NC(C(=O)OC)=C(C(=O)OC)[C@H]13
 : -2.3	-8.8	.	-11.8	-0.8	-10.0
> CCN(CC)S(=O)(=O)c1cccc(C(=O)N/N=C2\CC(=O)CC(C)(C)C2)c1
 : -7.0	4.1	0.4	-1.8	7.0	-11.5
> Cc1onc(-c2ccccc2Cl)c1C(N)=O
 : 4.4	-9.5	11.2	0.5	-0.4	-4.4
> Fc1ccccc1NC(=S)N(CCCN1CCOCC1)Cc1cccnc1
 : 2.4	3.9	4.9	7.8	0.8	-10.1
> CC(C)(CNCc1ccccc1)NS(=O)(=O)c1ccc(Cl)cc1
 : -1.5	-31.5	.	3.2	4.4	61.9
> Cc1ccc(NC(=O)CNC2CCCCC2)cc1Cl
 : -8.8	-6.1	-30.5	3.0	0.1	-0.8
> Cc1ccc2nc(SCC(=O)Nc3cccc(S(=O)(=O)NC4=NCCCCC4)c3)[nH]c2c1
 : -7.9	-7.9	14.5	-3.3	.	.
